Source: PubChem (National Center for Advancing Translational Sciences (NCATS))
gsp antag: qHTS for Antagonists of gsp, the Etiologic Mutation Responsible for Fibrous Dysplasia/McCune-Albright Syndrome: qHTS; gsp-mutant cells, cAMP HTRF, 30 min; control for the full effect not named in the record; Potency, µM (series often up to 76.9 µM), for inactives: at the highest dose activity change, negative = inhibition, most hits filed as inhibitors; actives 0.4% (n = 340,000); AID 624288, 2012; active = falling curve of any shape with a large fitted effect; inconclusive = falling curve, mostly with a smaller effect; inactive = flat or rising curve; cell line not stated here;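 also: intracellular cAMP measured with PDE inhibitor Ro 20-1724 present during compound exposure; potency is read from the fitted curve at half-maximal effect; % is scaled to controls: 0 for no effect and ±100 for the full control effect; nearly all actives have a fitted effect of over 65% in size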
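HTRF cAMP measurement after 30 min RT detection following 30 min, 37C compound treatment alongside […] (added as 300 uM solution) in G418-selected cells seeded at 2000/well and grown 16–24 h.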
Sfp inh: qHTS Assay for Inhibitors of Bacillus subtilis Sfp phosphopantetheinyl transferase (PPTase) | 4'-phosphopantetheinyl transferase ffp (Bacillus subtilis), Q9F4F7 | AID 1490, 2009 | actives 3.5% (n = 310,000) | Biochemical Sfp PPTase activity, qHTS | Potency, µM, for inactives: max response, negative = inhibition, most hits filed as inhibitors; active = well fitted inhibition curve with a large enough effect; inconclusive = small, poorly fitted or top-dose-only effect, or another doubt; inactive = no such curve, though single readings can be large or run the other way;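 also: the enzyme is Sfp with the accession as filed and its product quenches rhodamine fluorescence; potency is read from the fitted curve at half-maximal effect; 0% = enzyme reaction without inhibitor and -100% = no enzyme wells; top concentration of the series not given in the record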
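Fluorescence-quenching assay with 15 nM Sfp, 5 uM rhodamine-CoA and 12.5 uM BHQ-2-labelled ybbR peptide in pH 7.6 Hepes/MgCl2 buffer. Enzyme was pre-incubated with compound for 15 min at room temperature. Rate was taken from the 30-min fluorescence change (525/598 nm).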
gsp ag: qHTS for Agonist of gsp, the Etiologic Mutation Responsible for Fibrous Dysplasia/McCune-Albright Syndrome: qHTS. gsp mutant cells, cAMP HTRF, 30 min; control for the full effect not named in the record. Potency, µM (doses to about 76.9 µM), inactives show at the top dose activation (cAMP increase), hits mostly activators. actives 0.13% (n = 340,000); active = well fitted activation curve with a large enough effect; inconclusive = small, poorly fitted or top-dose-only effect, or another doubt; inactive = no such curve, though single readings can be large or run the other way; cell line not stated here;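 also: phosphodiesterase inhibitor Ro 20-1724 added with compounds to block cAMP breakdown; potency is read from the fitted curve at half-maximal effect; nearly all actives have a fitted effect of over 60% in size; about a fifth of the inactives were tested at one dose only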
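Cells stably selected in G418 were plated at 2000/well, grown 16-24 hr, then given compounds in DMSO with the PDE inhibitor […] (300 uM solution added) for 30 min at 37C; cAMP was read by HTRF.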
TRPV1 PAM: HTS Assay for Compounds that Act as Potentiators of the Vanilloid Receptor 1. actives 0.02% (n = 320,000). AID 540277, 2011. TRPV1-expressing cells, Fluo-8 calcium influx, capsaicin EC20 potentiation; host cell line not named in the record; control for the full effect not named in the record. Transient receptor potential cation channel subfamily V member 1 (Homo sapiens), Q8NER1. potentiation, % at 8.33 µM; active means potentiation above 80%; inconclusive means 30% to 80%; inactive means below 30%; also: 0% is about no effect
Target sequence (Q8NER1 whole entry, looked up): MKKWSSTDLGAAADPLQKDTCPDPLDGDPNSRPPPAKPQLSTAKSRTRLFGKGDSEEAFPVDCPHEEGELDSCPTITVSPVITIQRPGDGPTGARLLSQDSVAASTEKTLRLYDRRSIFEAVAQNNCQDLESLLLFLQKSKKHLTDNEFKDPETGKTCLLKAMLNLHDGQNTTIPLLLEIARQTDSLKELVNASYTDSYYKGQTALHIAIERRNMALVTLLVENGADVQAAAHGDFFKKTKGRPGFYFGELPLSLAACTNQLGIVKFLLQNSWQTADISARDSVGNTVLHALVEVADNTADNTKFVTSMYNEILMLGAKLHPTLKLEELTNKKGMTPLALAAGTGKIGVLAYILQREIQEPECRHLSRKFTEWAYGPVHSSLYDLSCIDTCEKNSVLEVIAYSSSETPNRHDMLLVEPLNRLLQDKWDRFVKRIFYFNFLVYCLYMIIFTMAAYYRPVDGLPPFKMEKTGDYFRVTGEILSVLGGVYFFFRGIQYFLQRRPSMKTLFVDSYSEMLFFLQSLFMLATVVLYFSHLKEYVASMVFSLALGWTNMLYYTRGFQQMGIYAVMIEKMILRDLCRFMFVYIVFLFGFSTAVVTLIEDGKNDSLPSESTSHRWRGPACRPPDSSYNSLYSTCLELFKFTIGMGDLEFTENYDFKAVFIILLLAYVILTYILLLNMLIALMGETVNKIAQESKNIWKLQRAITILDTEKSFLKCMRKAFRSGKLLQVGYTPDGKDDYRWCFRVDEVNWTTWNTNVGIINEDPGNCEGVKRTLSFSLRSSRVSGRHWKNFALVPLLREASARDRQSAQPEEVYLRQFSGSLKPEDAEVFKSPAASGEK
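TRPV1-expressing cells were cultured overnight at 35.5C and loaded with Fluo-8 calcium dye for 40 to 90 min at room temperature. After a 10 s baseline, compound was added and calcium influx was read kinetically for 3 min (ex 480/em 520 nm).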
ClpP mod: qHTS Assay for Activators of ClpP | ATP-dependent Clp protease proteolytic subunit (Bacillus subtilis (strain 168)), P80244 | purified B. subtilis ClpP, FRET peptide cleavage, 20 min | Potency, µM (doses to about 57.5 µM), for the others: top-dose activity change, negative = active | actives 1.9% (n = 340,000) | AID 651965, 2013; active = well fitted falling curve with a large enough effect; inconclusive = small, poorly fitted or top-dose-only effect; inactive = no such curve, though single readings can be large or run the other way; also: potency is read from the fitted curve at half-maximal effect; the source files actives as falling curves though it sought activators and does not explain the sign; nearly all actives have a fitted effect of over 65% in size; many hits overshoot -100%
Target sequence (P80244 whole entry, looked up): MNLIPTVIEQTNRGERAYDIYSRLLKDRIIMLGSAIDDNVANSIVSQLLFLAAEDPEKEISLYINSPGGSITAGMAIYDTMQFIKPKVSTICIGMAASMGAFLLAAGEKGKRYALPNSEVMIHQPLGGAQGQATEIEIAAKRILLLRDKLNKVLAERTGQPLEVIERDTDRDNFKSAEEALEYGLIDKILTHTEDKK
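ClpP 10 microg/mL final, pH 8 Tris/KCl buffer with BSA, glycerol, Tween-20; compound pinned in; FRET-FV substrate; RT 20 min; Ex320/Em430; ΔFRET vs ADEP 5.8 microM, DMSO, no enzyme.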
CtBP-E1A inh: qHTS Assay for Inhibitors of the CtBP/E1A Interaction; AlphaScreen GST-E1A/His-CtBP binding, 1536-well; stronger effect = lower value; control for the full effect not named in the record; activity change, % (test concentration not listed); actives 0.49% (n = 340,000); in the data active means activity change below about -65%; inconclusive means about -30% to -65%; inactive means above about -30%; also: % is scaled to controls: 0 for no effect and ±100 for the full control effect; compound concentration not given in the record
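Steps: dispense buffer (Tris pH 8.0, NaCl 300 mM, TCEP 1 mM, BSA, Tween 20); add 5X protein mix (GST-E1A, His-CtBP, 125 nM each); pin 23 nL compound; 2 h at 37 °C, dark; add 5X beads (50 ug/mL); 1 h; read.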
Menin MLL FP FL: qHTS Assay for Inhibitors Targeting the Menin-MLL Interaction in MLL Related Leukemias: Competition With Fluorescein Labeled MLL-derived Peptide. Fluorescence polarization, fluorescein-MLL peptide displacement from menin. FP activity change, % at 61.4 µM. 290,000 tested, under 10 active. AID 1766, 2009; inconclusive = falling polarisation curve, or a change in total fluorescence; inactive = total fluorescence flat and polarisation flat or rising; no compound was filed as active; the % refers to the polarisation; negative = inhibition;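 also: % of control where 0% means no effect; inhibitors lower the polarisation; unlabelled MLL peptide was the positive control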
* hit, by the source's call; ? = inconclusive; / = no result given; & = joins results of further samples; [ ] = another dose, or the depositor's remark.

Screens in order: ClpP mod, gsp ag, CtBP-E1A inh, TRPV1 PAM, gsp antag, Menin MLL FP FL, Sfp inh
- COC(=O)CSc1nnc(CNC(=O)c2ccc(S(=O)(=O)N3CCOCC3)cc2)n1C
  -3.3%, ?, /, 25.6, 0.3%, -2.5, 18.2%
- CSc1cccc(NC(=S)NC(=O)c2cccnc2)c1
  0.5%, 6.9%, /, -6.2, -10.9%, 1.5, 12.8%
- COc1ccccc1N1CCN(C(=O)CCCCCn2c(=S)[nH]c3cc4c(cc3c2=O)OCO4)CC1
  -1.9%, 12.2%, -8.2, /, /, /, /
- CCOC(=O)N1CCN(CC(=O)Nc2c(C(=O)OC)[nH]c3cccc(Cl)c23)CC1
  -26.7%, 5.0%, -4.6, 8.5, 4.9%, 0.3, 15.8%
- Cc1cc(C)cc(NC(=S)NCc2ccncc2)c1
  -2.7%, 3.6%[15.4 µM], -6.0, -14.0, -4.6%, 0.6, -10.1%
- CN=c1oc2ccc(Cl)cc2cc1C(N)=O
  2.0%, 18.3%, 1.2, -5.8, 5.7%, 26.1, 14.0%
- CCOC(=O)C1(Cc2cccc(OC)c2)CCCN(C(=O)c2ccccc2C)C1 (stereo not given)
  /, -4.5%[15.4 µM], 2.9, -20.4, -3.2%, -1.7, 8.8%
- O=C1C=C(c2ccc3ccccc3c2)C[C@@H](c2ccc(F)cc2)C1
  -10.5%, -43.0%[inhibitor], 6.2, -3.8, -12.3%, /, /
- CCOC(=O)[C@@H]1[C@H]2COc3ccc(Br)cc3[C@H]2N2C(=O)N(c3cccc(Cl)c3)C(=O)[C@]12C
  -5.8%, ?, -12.8, -16.2, -9.7%, 3.7, 19.6%
- COc1ccc2c(c1)c1nnc(SC)nc1n2C
  0.8%, -43.4%[inhibitor], -17.8, -1.5, 0.0%, 5.0, 1.2%
- Cc1cc(N=CC2=C(O)CCCC2=O)no1
  0.6%, -42.4%[inhibitor], 0.7, -6.1, 1.0%, -1.4, -16.6%
- Cc1ccccc1-c1nc(-c2ccc(NC(=O)c3cccs3)cc2)no1
  24.8%, 4.6%, -0.7, -5.5, -21.9%, 0.9, -11.3%
- Cc1ccc(C(=O)Nc2cccc(C(F)(F)F)c2)cc1NC(=O)c1ccno1
  0.3%&1.2%, -65.3%[inhibitor], 5.5&6.0, -21.9, -6.3%, 1.0, 8.0%
- CCOC(=O)N1CCC(N2C(=O)c3ccccc3C2Nc2cccnc2)CC1 (stereo not given)
  0.8%, -11.2%, 1.5, 15.8, ?, 4.3, 0.4%
- O=C(COC(=O)COc1ccc(Cl)cc1)NCc1cccs1
  2.3%, -1.8%, 5.0, -26.5, 12.8%, 3.8, 12.7%
- Cc1ccsc1C(=O)NCCc1c[nH]c2ccccc12
  -0.1%, -42.2%[inhibitor], -1.0, -8.6, -6.3%, /, 11.2%
- CCOC(=O)c1c(C)[nH]c(C(=O)OCC(=O)Nc2cc(C)c(Cl)cc2OC)c1C
  0.6%, -7.5%, 1.0, 1.2, -8.6%, 2.0, 7.4%
- COc1cc2cc(Oc3ccc4ccc(=O)oc4c3)c(=O)oc2cc1OC(C)=O
  -21.6%, /, 5.4, -15.0, -6.8%, -0.2, 14.0%
- COc1ccccc1OC(C)C(=O)Nc1ccc(S(=O)(=O)Nc2nccs2)cc1 (stereo not given)
  -0.2%, 20.0%[15.4 µM], 1.2, 6.7, ?, -7.2, 6.0%
- CCCCNC(=O)/C(C#N)=C/c1cccnc1
  /, -16.5%[15.4 µM], 0.0, 9.1, 13.9%, -2.4, 0.6%
- CCCC(=O)NC(=S)Nc1ccc(N2CCN(C(=O)c3cccs3)CC2)cc1
  -3.1%, -1.3%, ?, -1.9, ?, -2.3, 11.5%
- COc1ccc(C(=O)NCc2ccc(S(N)(=O)=O)cc2)cc1[N+](=O)[O-]
  -4.4%, 19.3%, /, -4.0, 7.5%, 1.2, 10.1%
- O=C(/C=C/c1ccc(Br)cc1)NC(=S)NNC(=O)c1ccco1
  1.9%, -2.8%, -25.1, 0.7, 3.3%, 1.9, -2.5%
- CN(Cc1c(C(=O)N/N=C/c2ccc(O)cc2)nnn1-c1nonc1N)c1ccccc1
  0.0%, -1.0%, -11.4, 3.4, ?, /, 14.8%
- C/C(CC(=O)Nc1ccccn1)=N\NC(=O)c1ccc2ccccc2c1
  7.0%, -22.0%, -2.5, ?, 0.7%, 5.4, -2.7%
- CN(c1ccc(F)cc1)S(=O)(=O)c1ccc(Cl)c(C(=O)NCc2ccco2)c1
  2.3%, -10.0%, /, /, -2.0%, /, /
- O=C(NNC(=O)c1ccccc1Cl)c1cc2cc(OC(F)(F)F)ccc2[nH]1
  15.8µM*, 1.9%[15.4 µM], -2.5, 1.6, -6.2%, 5.1, 12.1%
- CCOc1ccc(CCNS(=O)(=O)c2cc3c(cc2C)NC(=O)CO3)cc1OCC
  2.0%, -57.1%, -5.0, 4.6, -9.9%, -0.9, -3.7%
- Cc1ccc(-c2cc(C(F)F)nc(N3CCOCC3)n2)cc1
  /, -2.8%, 15.5, -9.8, 0.0%, -5.3, -29.7%
- Cc1ccnc(NC(NC(=O)C(C)C)(C(F)(F)F)C(F)(F)F)c1
  -2.5%, -17.3%, 6.5, 5.6, 5.5%, -1.3, 6.2%
- CSc1ccc(C(=O)N2CCC(CCC(=O)NCc3ccc(F)cc3)CC2)cc1
  1.2%, 23.3%, 0.5, 8.8, -21.5%, 0.7, 11.1%
- CCOc1ccc(NC(=S)NC(=O)/C=C/c2ccc(OC)cc2)c([N+](=O)[O-])c1
  -8.8%, -34.4%[inhibitor], -5.9, 19.4, -3.0%, 3.8, 70.8µM*
- COC(=O)C1=C(C(=O)c2ccc(C)cc2)C(c2ccccc2)n2nnnc2N1 (stereo not given)
  -1.2%, 4.7%, -6.0, -6.1, -6.5%, 4.3, 24.8%
- COc1ccc2cnn(-c3ccccc3)c(=O)c2c1OC
  -10.6%, -4.5%, 5.1, -28.9, 9.9%, 4.7, 16.9%
- Nc1nc2cc3ccccc3cc2[nH]c1=O
  -4.3%, -28.7%, /, -5.0, ?, 0.6, -11.7%
- O=C(Cn1c(=O)c2cccn2c2ccccc21)NCCc1ccccc1
  -19.3%&-3.5%, 13.3%, /, -1.0, -1.3%, /, 17.7%
- COc1cccc(CN(C(=O)COc2ccccc2[N+](=O)[O-])C2CCS(=O)(=O)C2)c1 (stereo not given)
  -2.5%, -50.1%[inhibitor], -9.3, -3.1, 5.4%, -2.5, -9.9%
- Cc1ccc2oc(=O)c3cnn(CC(=O)NCCc4ccsc4)c3c2c1
  -0.8%, -11.5%, -1.3, 3.8, -2.8%, 5.0, -14.9%
- Cc1nc(CCNC(=O)C2CCC(=O)N(CCc3cccc(F)c3)C2)sc1C (stereo not given)
  -0.6%, 3.9%, 0.6, 6.5, 14.5%, /, 9.7%
- CC(C)c1nc(N2CCN(C(=O)c3ccco3)CC2)c(C#N)c2c1COC(C)(C)C2
  /, -10.1%, -3.1, -14.1, -11.5%, -0.5, -4.5%
- CCOC(=O)CN(c1ccccn1)S(=O)(=O)c1ccc(OC)cc1
  /, ?, -6.3, 1.3, 5.1%, -0.5, 6.1%
- CN(CC(=O)NC(c1ccccc1)c1ccccc1)Cc1nc2ccccc2c(=O)[nH]1
  -0.4%, 9.4%, -9.6, -6.7, 2.8%, 1.2, 0.0%
- C=C1c2cc(CC)ccc2NC(=O)N1c1ccc(C)cc1
  4.2%, -13.0%, 20.2, 25.7, -4.9%, 2.4, 26.0%
- O=C(c1cccs1)N1C[C@H](n2cc(-c3ccc(F)cc3)nn2)[C@@H](O)C[C@@H]1c1ccc(Cl)cc1
  -0.6%, ?, 1.2, /, /, /, /
- NS(=O)(=O)c1ccc(CNC(=O)Cn2nc(C(F)F)cc2C(F)F)cc1
  0.2%, -17.4%, /, 2.9, 9.5%, /, /
- CCc1ccccc1-n1cnc2cc(C(=O)O)ccc21
  1.8%, -34.1%[inhibitor], 1.7, -1.9, -6.5%, 14.2, 20.3%
- CCOc1ccc(N2C(=O)CC(Cc3ccc(Br)cc3)C2=O)cc1 (stereo not given)
  2.9%, -30.9%[inhibitor], /, 2.3, -22.8%, 0.2, 13.8%
- CCCCCn1c(=O)[nH]c2cc(C(=O)NCc3ccc4c(c3)OCO4)ccc2c1=O
  13.8%, -5.4%, 5.9, 0.3, 13.9%, -3.7, -0.6%
- Cc1cccc(OCC(=O)N(Cc2ccc(C)o2)C2CCS(=O)(=O)C2)c1 (stereo not given)
  -2.1%, -39.3%[inhibitor], -9.9, -5.7, 2.3%, /, -14.2%
- COc1ccc(S(=O)(=O)n2nc(OC(=O)c3c(-c4ccccc4Cl)noc3C)cc2N)cc1
  0.9%, -6.5%, ?, 5.5, -13.9%, 3.3, 20.4%
- CCOCCc1nnc(NC(=O)c2cc(OC)c(OC)cc2[N+](=O)[O-])s1
  1.6%, -4.1%[15.4 µM], 6.6, 6.2, 3.4%, -1.1, 0.8%
- CN(C)CCSc1nc2cc(S(=O)(=O)N3CCCCC3)ccc2o1
  -1.5%, -1.3%, /, /, 3.7%, /, /
- CCc1ccc2ncc(C(=O)c3ccccc3)c(N3CCOCC3)c2c1
  0.5%, 28.7%, -12.1, -3.3, -9.1%, ?, 16.7%
- Brc1ccccc1-c1ccccc1
  -0.8%, /, 3.9, -11.9, 2.7%, /, /
- O=C1c2ccccc2C(Nc2ccccc2)N1Cc1ccc2c(c1)OCO2 (stereo not given)
  /, 2.3%, -4.2, 2.9, -24.1%, -1.2, 1.8%
- COc1ncccc1-c1nnn(-c2ccccc2Br)n1
  -2.0%, /, 0.6, /, 1.3%, /, /
